Assay outcomes from PubChem BioAssay.
RGS16-Gao HTS = modulators of RGS16 binding to Galphao, primary screen, biochemical, human proteins, multiplexed bead flow cytometry; Regulator of G-protein signaling 16 (Homo sapiens) + Guanine nucleotide-binding protein …; AID 1441, 2008; bead-based flow cytometry RGS16-Galphao binding, fluorescence; actives lie on both sides; binding response (% of control), % at 10 µM; 0.38% of 220,000 active;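 active = below 25% or above 175%, edge rows of some plates excepted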;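 note: Galphao activated by GDP with aluminum fluoride before binding; 100% = wells without compound and 0% = beads without RGS; some results beyond the cut were filed as inactive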
Target sequence (O15492 whole entry, looked up): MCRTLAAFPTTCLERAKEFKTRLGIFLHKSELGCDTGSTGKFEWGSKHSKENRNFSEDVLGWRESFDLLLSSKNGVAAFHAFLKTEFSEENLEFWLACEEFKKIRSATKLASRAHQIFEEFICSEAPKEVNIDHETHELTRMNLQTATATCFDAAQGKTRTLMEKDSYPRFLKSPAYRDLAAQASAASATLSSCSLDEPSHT
Target sequence (P09471 whole entry, looked up): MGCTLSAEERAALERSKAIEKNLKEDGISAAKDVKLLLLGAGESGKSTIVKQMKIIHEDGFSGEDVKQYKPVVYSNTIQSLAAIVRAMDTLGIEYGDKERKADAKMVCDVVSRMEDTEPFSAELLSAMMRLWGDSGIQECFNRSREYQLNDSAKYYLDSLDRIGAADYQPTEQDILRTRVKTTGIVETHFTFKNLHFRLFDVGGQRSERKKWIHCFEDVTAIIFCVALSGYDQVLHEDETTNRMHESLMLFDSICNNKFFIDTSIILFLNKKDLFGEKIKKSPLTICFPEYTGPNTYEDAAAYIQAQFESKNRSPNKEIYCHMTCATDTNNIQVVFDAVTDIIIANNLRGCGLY
Insulin prom inh = inhibitors of insulin promoter-driven GFP, primary screen, imaging, TRM-6 cells (human fetal islet line), eGFP reporter, cell count; reporter expression induced with tamoxifen; 0.9% of 130,000 active; inhibition, % at 2 µM;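 active = inhibition above the mean plus 3 SD, with well images judged a real hit on visual review, cut at about 60% in these data, passing the limit was not always enough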
HSV replic up = enhancers of HSV replication in host cells, fold increase, host cell viability; HSV replication augmentation in cells; maximum fold increase; 0.005% of 220,000 active; AID 1956, 2009;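 active = peak rise of 1.5-fold or more in the series; tested in PC3 cells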;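 note: first round at 10 µM; read as green reporter fluorescence; hits show the peak of a series up to 25 µM; 1 = signal of infected wells without compound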
PKD1 inh = inhibitors of human PKD1 kinase, biochemical, fluorescence polarization | AID 797, 2007 | Serine/threonine-protein kinase D1 (Homo sapiens), Q15139 | PKD1 kinase fluorescence polarization assay | inhibition, %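 (about 10 µM by stock and volumes)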 | 0.056% of 200,000 active;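 active = inhibition of 50% or more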;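 note: controls were vehicle for no effect and a reference inhibitor for full effect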
GALR2 agonist = GALR2 receptor agonists, primary screen, cell-based | GALR2-expressing cells, agonist activation read-out | AID 803, 2007 | 0.48% of 140,000 active | activation, %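 (tested at 5 µM)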;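 active = above mean plus 3 SD of all compounds, about 5% in these data, not always enough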;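 note: 0% = vehicle buffer wells and 100% = reference agonist at full effect; tested in CHO reporter cells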
Target sequence (O43603 whole entry, looked up): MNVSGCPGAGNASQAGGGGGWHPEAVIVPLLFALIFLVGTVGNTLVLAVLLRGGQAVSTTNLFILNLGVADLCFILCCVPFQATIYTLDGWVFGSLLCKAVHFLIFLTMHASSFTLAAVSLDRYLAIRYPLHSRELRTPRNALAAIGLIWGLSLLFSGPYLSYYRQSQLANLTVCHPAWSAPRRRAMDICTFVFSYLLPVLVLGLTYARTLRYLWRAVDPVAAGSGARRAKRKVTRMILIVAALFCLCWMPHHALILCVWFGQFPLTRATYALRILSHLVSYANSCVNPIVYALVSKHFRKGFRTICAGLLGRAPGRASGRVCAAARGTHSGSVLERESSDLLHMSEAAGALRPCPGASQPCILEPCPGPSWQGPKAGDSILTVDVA
Insulin prom inh cell count = further read-out of Insulin prom inh, marked with its call; normalized cell count, %; measured here: cell count, toxicity; reference of the scale not given here;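 cells exposed to compound for 48 h; stained nuclei by imaging scaled within each plate; lower means fewer cells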
HSV replic up primary fold = recorded beside HSV replic up, whose call it bears; fold increase; compound at 10 µM; measured here: primary screen fold increase 10 uM; tested in PC3 cells;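 GFP signal in the first replicate; 1 = infected wells without compound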
An asterisk follows results filed as active; i = inactive; / = no result given.

Each structure is followed by: RGS16-Gao HTS	Insulin prom inh	Insulin prom inh cell count	HSV replic up	HSV replic up primary fold	PKD1 inh	GALR2 agonist
- Cc1ccc(CNC(=O)c2ccc(N3CCc4ccccc43)c([N+](=O)[O-])c2)cc1
  134	9	69	i	0.94	9	-1.0
- CCOC(=O)C(C)On1c(-c2ccc(Cl)cc2)nc2ccc([N+](=O)[O-])cc21 (centres undefined)
  107	3	103	i	0.89	-8	-2.6
- COc1cccc(OC)c1-c1nn2c(-c3ccccc3Cl)nnc2s1
  98	/	/	i	0.77	15	-0.1
- CN(CC(=O)NC(=O)NCc1ccccc1)Cc1ccc(Cl)c(Cl)c1
  101	-83	80	i	0.9	-8	-1.4
- Cc1ccc(NC(=O)C2CCC(CNc3c(N4CCC(C)CC4)c(=O)c3=O)CC2)cc1F (centres undefined)
  96	/	/	i	0.91	/	/
- O=C1OCC=C1NNC(=O)c1cccnc1
  103	/	/	i	0.91	0	/
- CCc1nc(SCC(=O)c2ccccc2)c2c(=O)n(C)c(=O)n(C)c2n1
  94	/	/	i	0.92	/	/
- CC1(C)SC(=S)N(/N=C/c2ccccc2O)C1N(O)C(=O)Nc1ccccc1 (centres undefined)
  99	/	/	i	1	/	/
- CCOC(=O)Cc1nnc(NC(=O)CC)s1
  102	/	/	i	1.1	-4	-0.3
- CCCn1cc(SCC(=O)Nc2nnc(C)s2)c2ccccc21
  112	29	65	i	0.96	-4	-0.8
- O=C(c1cccc2ccccc12)C1CCCN(C(=O)CCN2CCCO2)C1 (centres undefined)
  97	/	/	i	0.96	-11	/
- C[C@@H]1CC=C[C@H]2[C@H]1C(=O)N(Cc1ccccc1)[C@H]2c1ccoc1
  104	/	/	i	0.81	/	/
- C=CCNc1nc(-c2c(C)nc3sccn23)cs1
  103	66	141	i	0.85	1	-0.8
- Cc1ccc(CNC(=O)c2oc3ccc(S(=O)(=O)N4CCOCC4)cc3c2C)cc1
  100	-4	103	i	1.1	-4	-1.8
- O=C(c1cc2ccccc2oc1=O)N(Cc1ccco1)C1CCS(=O)(=O)C1 (centres undefined)
  39	-3	149	i	0.97	-2	-1.8
- Cc1cccc(C)c1NC(=O)C1(NC(=O)C2CCCN2C(=O)OC(C)(C)C)CCCCC1 (centres undefined)
  102	-171	82	i	0.81	8	-1.0
- Cn1c(CO)cnc1S(=O)(=O)Cc1ccc(Cl)cc1
  100	6	73	i	1.2	4	/
- O=C(CSc1ccc(Cl)cc1)Nc1ccc(C2SCCS2)cc1
  101	/	/	i	1	/	/
- O=C(NCC1CCCO1)C(c1cccnc1)N(C(=O)Cc1cccs1)c1ccccc1 (centres undefined)
  102	7	107	i	1	-4	-1.8
- Cc1ccc(C2C(C#N)=C(N)Oc3nc(-c4ccccc4)[nH]c32)o1 (centres undefined)
  92	/	/	i	1.1	-22	-0.7
- O=C(CN(c1ccccn1)S(=O)(=O)c1ccc(F)cc1)Nc1ccccc1
  99	-8	129	/	/	11	/
- CCOC(=O)CC(NC(=O)c1cc2ccccc2oc1=O)c1cccc([N+](=O)[O-])c1 (centres undefined)
  109	-32	120	i	0.98	-12	0.8
- O=C1Cc2ccccc2C(=O)N1CCc1ccccc1
  105	/	/	i	1	-6	-2.0
- Cc1cccc(C)c1NC(=O)COC(=O)c1ccc2[nH]c3c(c2c1)CCCC3
  110	-45	81	i	0.92	30	/
- COc1ccc(S(=O)(=O)/N=C2/NC(=O)/C(=C\c3cc(OC)c(OC)cc3[N+](=O)[O-])S2)cc1
  97	37	112	i	0.91	-4	-0.8
- O=C(Oc1ccc(Br)cc1C(=S)N1CCCC1)c1ccccc1F
  96	40	88	i	0.94	-11	-0.4
- CCOC(=O)N1CCN(C(=O)CS(=O)(=O)c2cn(Cc3ccccc3C)c3ccccc23)CC1
  101	-125	89	i	1	7	-1.6
- O=C(O)CC(NNC(=O)c1ccccc1)C(=O)Nc1cccc([N+](=O)[O-])c1 (centres undefined)
  100	/	/	i	0.89	/	/
- Cn1c(=O)c2c(nc(Br)n2C/C=N/NC(N)=S)n(C)c1=O
  94	/	/	i	1.1	/	/
- O=C(O)c1ccccc1-c1nc2ccccc2n1-c1ccccc1
  101	/	/	i	1	1	-0.8
- O=C(CNC(=O)Cc1ccccc1)NCC(=O)OCc1ccc(C(=O)c2ccccc2)cc1
  110	/	/	i	1.4	-14	-0.5
- Cc1cc(C)nc(N2CCC(C(=O)NC3CCCc4ccccc43)CC2)n1 (centres undefined)
  102	-52	89	i	1	3	-1.2
- Cc1ccc(S(=O)(=O)c2c(C)nn(C(C)(C)C)c2OC(=O)C(C)(C)C)cc1
  100	28	107	i	0.88	4	0.3
- N/C(CCCN1CCCCC1)=N/O
  130	-9	71	i	0.96	-10	-0.9
- CC(C)NC(=O)COC(=O)c1cc(=O)[nH]c2ccccc12
  91	-30	102	i	0.94	-1	-0.7
- N#Cc1ccc(-c2cn(-c3ccccc3)c3[n+]2CCCS3)cc1
  99	/	/	i	1	-1	/
- Cn1c(=O)n(Cc2ccccc2Cl)c2ccccc21
  109	/	/	i	0.93	-3	/
- CCOC(=O)CC1=C(C(=O)OCC)C(c2cc(OC)c(OC)cc2OC)C(C#N)=C(N)O1 (centres undefined)
  103	-26	57	i	1	-6	-0.5
- COC(=O)CNC(=O)CNC(=O)Nc1ccccc1Cl
  87	/	/	i	0.89	-2	1.6
- CC(O/N=C/c1ccc(OC(F)F)cc1)C(=O)Nc1cccc(S(=O)(=O)N2CCOCC2)c1 (centres undefined)
  40	/	/	i	1	-4	-2.5
- Cc1cc(S(=O)(=O)N(Cc2ccccc2F)C2CC2)ccc1-n1cnnn1
  109	-61	110	i	0.97	-3	/
- CNS(=O)(=O)c1cccc(C(=O)OCC(=O)N2CCc3ccccc3C2)c1
  104	-67	138	i	1	-3	-0.9
- Nc1c(C(=O)N/N=C/c2ccc(OCc3ccccc3)cc2)cnn1-c1ccccc1
  98	/	/	i	0.82	/	/
- Cc1ccc(OC(=O)c2sc3ncn(C)c(=O)c3c2C)cc1
  102	-14	97	i	0.99	-5	/
- CCn1ncc(/C=C2/SC(=S)NC2=O)c1C
  75	-46	92	i	1	10	-0.8
- CCN(CC)C(=O)CSc1nc2ccc(NC(=O)CSc3nnc(N)s3)cc2s1
  101	-46	206	/	/	-14	-2.4
- O=C(O)c1cc(NCc2c(F)cccc2Cl)ccc1N1CCOCC1
  111	-93	160	i	0.93	-20	-2.0
- COc1ccc(NS(=O)(=O)c2cn(C)c(=O)n(C)c2=O)cc1
  105	/	/	i	1.1	/	/
- O=C(NCCNC(=O)c1cc(OCC(F)(F)F)ccc1OCC(F)(F)F)Nc1ccc(Cl)cc1
  98	/	/	i	0.89	-7	-1.3
- CCC(C)N(C)Cc1cccc(C2(O)CCN(S(=O)(=O)c3ccc(F)c(C)c3)CC2)c1 (centres undefined)
  115	0	95	i	0.88	-10	-2.6
- Cc1cc(NC(=O)c2cnn3c(C(F)F)cc(-c4ccccc4)nc23)no1
  122	-9	110	i	0.79	2	-3.3
- COc1ccc(Cn2c(CCC(=O)Nc3ccccc3OC)nc3cccnc32)cc1
  72	19	96	i	0.99	1	/
- Cc1ccc(N2CC(O)(c3cccs3)[N+]3=C2CCCC3)cc1 (centres undefined)
  106	-35	126	i	1	-3	/
- CC(C)c1ccc(N)c(S(=O)(=O)O)c1
  97	/	/	i	1.1	/	/
- COc1ccc(C(=O)NCCSc2ccccn2)cc1
  102	-4	91	i	0.91	-5	-2.9
- Cc1c(C(=O)O)oc2ccc(S(=O)(=O)NCc3ccccc3)cc12
  103	-23	119	i	1.1	-3	-0.9
- CCCCNC(=O)CCC(=O)Nc1ccc2nc(N3CCOCC3)cc(C)c2c1
  99	/	/	i	0.78	-1	-1.2
- O=C(CCc1nnc(CCCCc2ccccc2)o1)NCCN1CCOC1=O
  104	0	109	i	0.96	-3	/
- O=C(NC1CCCCC1)c1cc(-c2ccco2)on1
  99	/	/	/	/	-9	-2.1
- Cc1nc2sc(C(c3ccco3)N3CCC(C)CC3)c(O)n2n1 (centres undefined)
  101	/	/	i	0.82	-1	-1.0

Later entries.
Each structure is followed by: RGS16-Gao HTS	Insulin prom inh	Insulin prom inh cell count	HSV replic up	HSV replic up primary fold	PKD1 inh	GALR2 agonist
- O=C(NCc1csc(-c2cccs2)n1)c1ccsc1
  100	/	/	i	1	/	/
- CN(CC(=O)Nc1cccc2ccccc12)c1ccc(S(=O)(=O)N2CCOCC2)cn1
  102	-96	113	i	0.96	-5	-1.3
- O=C(O)CCc1ccc(-c2cccs2)n1-c1ccc(C(=O)O)cc1
  119	/	/	i	0.78	17	-3.3
- Cc1cc(C)c(OCCN2CC(C)OC(C)C2)c(Br)c1 (centres undefined)
  100	-62	100	i	0.95	-2	/
- CN1CCN(c2oc(/C=C/c3ccccc3)nc2C#N)CC1
  100	/	/	i	0.9	/	/
- COc1cccc(-c2nnc(SCc3nc4ccccc4s3)n2C)c1
  102	/	/	i	0.92	2	-1.4
- C=CCN1CN(S(=O)(=O)c2cccs2)c2nc3ccccc3nc21
  97	/	/	i	1.2	12	-2.7
- CCN(CC)C(=O)CSc1nnc(-c2cnccn2)n1-c1ccc(C)cc1
  87	-25	80	i	0.93	5	-2.0
- Cc1cnn(-c2cc(N/N=C/c3ccccc3)ncn2)c1
  101	/	/	i	0.95	-10	-0.3
- COc1cccc(-c2csc(N3CCN(C(=S)Nc4ccccc4OC)CC3)n2)c1
  100	/	/	i	0.98	-16	-4.2
- OC(COc1ccc(CN2CCCCO2)cc1)CN1CCCCC1 (centres undefined)
  95	/	/	i	1.2	-7	/
- COc1ccc(C2CC(c3ccccc3C)n3nc(N)nc3N2)cc1 (centres undefined)
  100	/	/	i	0.88	3	-1.2
- O=C(NNC(=O)c1ccccc1[N+](=O)[O-])c1ccccc1[N+](=O)[O-]
  94	13	99	i	0.91	-7	/
- Cc1cc(C)c(S(=O)(=O)NCC23C=CC(O2)C2C(=O)N(c4ccccc4)C(=O)C23)c(C)c1 (centres undefined)
  91	38	127	i	0.88	-12	-1.5
- CCOC(=O)CC(=O)CSc1nc(-c2cccnc2)cc(C)c1C#N
  101	14	124	i	0.97	-7	-2.1

3 entries from above, ordered by the number in PKD1 inh, high to low:
structure	RGS16-Gao HTS	HSV replic up primary fold	PKD1 inh	GALR2 agonist
CCN(CC)C(=O)CSc1nnc(-c2cnccn2)n1-c1ccc(C)cc1	87	0.93	5	-2.0
COc1cccc(-c2nnc(SCc3nc4ccccc4s3)n2C)c1	102	0.92	2	-1.4
Cc1cc(C)c(S(=O)(=O)NCC23C=CC(O2)C2C(=O)N(c4ccccc4)C(=O)C23)c(C)c1 (centres undefined)	91	0.88	-12	-1.5

The results go on:
Each structure is followed by: RGS16-Gao HTS	Insulin prom inh	Insulin prom inh cell count	HSV replic up	HSV replic up primary fold	PKD1 inh	GALR2 agonist
- N=C1/C(=C\c2ccc(OC(=O)c3ccco3)cc2)C(=O)N=C2SC=NN12
  108	35	112	i	1.2	-2	/
- COc1ccccc1C(CCNS(=O)(=O)c1ccc(C)cc1)c1ccco1 (centres undefined)
  111	-11	72	i	1	8	-1.3
- C=CCNC(=O)CSc1nnc(-c2cccs2)o1
  107	49	108	i	0.92	3	-1.9
- O=C(Cn1cnc2ccccc2c1=O)NCC(=O)N1CCOCC1
  109	-14	48	i	1	-1	/
- Cc1ccc(-c2cc(-c3c(C)nn(C)c(=O)c3N)[nH]n2)cc1
  114	/	/	i	1.1	/	/
- CC1=C(C(=O)Nc2ccc(C)cc2C)C(c2cccc(Cl)c2)n2nc(C(=O)OC(C)C)nc2N1 (centres undefined)
  103	10	103	i	0.92	-3	-0.4
- O=C(O)CCN(Cc1ccccc1)S(=O)(=O)c1ccc(Cl)cc1F
  99	/	/	i	1	0	/
- COc1ccc(CCN2C(=O)CC(C(N)=O)SC2=Nc2ccc(F)cc2)cc1OC (centres undefined)
  100	/	/	i	1.1	4	/
- NS(=O)(=O)c1ccc(-c2ccc(/C=N/NC(=O)c3ccc([N+](=O)[O-])cc3)o2)cc1
  102	/	/	i	0.87	/	/

Three entries from above, ordered by molar mass, smallest number first:
Each structure is followed by: RGS16-Gao HTS	Insulin prom inh	Insulin prom inh cell count	HSV replic up	HSV replic up primary fold	PKD1 inh	GALR2 agonist
- Cc1ccc(-c2cc(-c3c(C)nn(C)c(=O)c3N)[nH]n2)cc1
  114	/	/	i	1.1	/	/
- O=C(Cn1cnc2ccccc2c1=O)NCC(=O)N1CCOCC1
  109	-14	48	i	1	-1	/
- NS(=O)(=O)c1ccc(-c2ccc(/C=N/NC(=O)c3ccc([N+](=O)[O-])cc3)o2)cc1
  102	/	/	i	0.87	/	/
